Compound activity deposited in PubChem by National Center for Advancing Translational Sciences (NCATS).
LASV entry inh: qHTS for Inhibitors of binding or entry into cells for Lassa Virus. Lassa virus pseudotype entry inhibition, cell reporter; control for the full effect not named in the record. Potency, µM (doses to about 37.9 µM), for inactives: at the highest dose activity change, negative = inhibition, usual class: inhibitors. 1.2% of 300,000 active; active means well fitted inhibition curve with a large enough effect; inconclusive means small, poorly fitted or top-dose-only effect, or effect the other way; inactive means flat fitted curve, though single readings scatter; tested in HEK293 cells; note: % is set by controls: 0 for no effect and ±100 for the full control effect; nearly all actives have a fitted effect of over 50% in size; luciferase read-out
RE007 growth inh: qHTS Assay for Inhibitors of the HIV-1 protein Vpr; Potency, µM (top dose mostly 92.2 µM), inactives show at the highest dose activity change, negative = less growth; 0.21% of 360,000 active; AID 651644, 2012; S. pombe RE007 Vpr strain, BacTiter-Glo ATP luminescence, 24 h; control for the full effect not named in the record; active = well fitted falling curve with a large enough effect; inconclusive = small, poorly fitted or top-dose-only effect; inactive = no such curve, though single readings can be large or run the other way;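 note: % is set by controls: 0 for no effect and ±100 for the full control effect; nearly all actives have a fitted effect of over 50% in size; the assay follows cell death caused by Vpr and the record does not say whether a fall means rescue or toxicity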
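Fission yeast strain RE007, carrying one chromosomally integrated HIV-1 vpr copy, was seeded at OD 0.01 in PMG+AL medium with 23 nL pinned compound. After 24 h at 30 °C and 99% humidity, viability was read by BacTiter-Glo luminescence.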
Cruzain inh noDet: qHTS Assay for Promiscuous and Specific Inhibitors of Cruzain (without detergent); purified cruzain, Z-FR-AMC fluorescence, no detergent; Potency, µM, for the others: max response, negative = inhibition, usual class: inhibitors; 2.3% of 200,000 active;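 note: plate controls were enzyme without inhibitor for no effect and buffer without enzyme for full effect; nearly all actives have a fitted effect of over 40% in size; top concentration of the series not given in the record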
Target sequence (P25779 123-467 limits assumed): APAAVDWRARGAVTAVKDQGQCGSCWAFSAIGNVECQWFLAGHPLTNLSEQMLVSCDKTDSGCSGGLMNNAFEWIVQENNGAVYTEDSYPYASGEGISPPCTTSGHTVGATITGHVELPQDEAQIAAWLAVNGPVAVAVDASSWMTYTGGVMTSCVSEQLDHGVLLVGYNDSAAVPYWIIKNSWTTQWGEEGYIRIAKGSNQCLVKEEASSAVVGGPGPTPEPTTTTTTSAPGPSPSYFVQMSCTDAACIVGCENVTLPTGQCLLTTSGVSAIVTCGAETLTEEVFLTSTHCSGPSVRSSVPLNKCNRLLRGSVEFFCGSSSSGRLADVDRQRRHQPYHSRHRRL
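Purified cruzain at 1.5 nM, pre-incubated 15 min with compound at room temperature in 100 mM sodium acetate pH 5.5, 5 mM DTT, 0.00005% Triton X-100. Reaction started with 2 uM Z-FR-AMC; AMC fluorescence increase over 60 s gives rate.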
2A StopGo: High Throughput Screening for Foot and Mouth Disease Virus Antivirals. AID 1159524, 2015. human cells with a luciferase reporter of 2A StopGo recoding; control for the full effect not named in the record. Potency, µM (doses to about 57.9 µM), for inactives: at the top dose signal change, negative = less light. 1.2% of 410,000 active; active = well fitted falling curve with a large enough effect; inconclusive = small, poorly fitted or top-dose-only effect; inactive = no such curve, though single readings can be large or run the other way; tested in HEK293T cells; note: % is set by controls: 0 for no effect and ±100 for the full control effect; nearly all actives have a fitted effect of over 45% in size; luciferase light after 4 h
Marburg entry inh: qHTS for inhibitors of binding or entry into cells for Marburg Virus; 1.8% of 300,000 active; Marburg virus pseudotyped entry inhibition, cell reporter; control for the full effect not named in the record; about a third of the inactives were read at about 46 µM; AID 540276, 2011; Potency, µM (top dose mostly 37.8 µM), for the others: at the highest dose activity change, negative = inhibition, hits mostly inhibitors; active = well fitted inhibition curve with a large enough effect; inconclusive = small, poorly fitted or top-dose-only effect, or effect the other way; inactive = flat fitted curve, though single readings scatter; tested in HEK293 cells; about a fifth of its hits are not listed in these tables; note: % is set by controls: 0 for no effect and ±100 for the full control effect; luciferase read-out
SARS PLpro yeast: qHTS of Yeast-based Assay for SARS-CoV PLP; S. cerevisiae expressing SARS-CoV PLpro, growth rescue; control for the full effect not named in the record; 0.19% of 330,000 active; Potency, µM (doses to about 32.9 µM), without a hit: at the top dose activity, positive = growth rescue; active means well fitted rising curve with a large enough effect; inconclusive means small, poorly fitted or top-dose-only effect; inactive means no such curve, though single readings can be large or run the other way; note: 0% is about no effect; nearly all actives have a fitted effect of over 55% in size; growth read by luminescence after 48 h
Cruzain inh Det: qHTS Assay for Promiscuous and Specific Inhibitors of Cruzain (with detergent); purified cruzain, Z-FR-AMC fluorescence, 0.01% Triton; Potency, µM, for the others: max response, negative = inhibition, actives largely listed as inhibitors; 0.43% of 200,000 active;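 note: plate controls were neutral wells for no effect and buffer without enzyme for full effect; nearly all actives have a fitted effect of over 40% in size; top concentration of the series not given in the record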
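Sodium acetate buffer (100 mM, pH 5.5) containing 5 mM DTT and 0.01% Triton X-100 hosted 1.5 nM cruzain and test compound for 15 min at room temperature. Cleavage of 2 uM Z-FR-AMC was then tracked by fluorescence.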
NS1 inh: qHTS Assay for Inhibitors of Influenza NS1 Protein Function; 0.4% of 270,000 active; AID 2326, 2010; Potency, µM (doses to about 46.1 µM), for inactives: at the highest dose activity, positive = more growth; S. cerevisiae slowed by influenza A NS1, growth recovery by OD600; active means well fitted rising curve with a large enough effect; inconclusive means small, poorly fitted or top-dose-only effect; inactive means no such curve, though single readings can be large or run the other way; note: nearly all actives have a fitted effect of over 50% in size
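A cell-based growth assay was used: compounds that relieve NS1-induced slow growth of budding yeast raise OD600. Assay medium was yeast nitrogen base with ammonium sulphate and -URA supplement, pH 6.0, with 2% galactose.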
* marks the source's active call; other numbers are inactive results; & = joins results of further samples; [ ] = another dose, or the depositor's remark. Unless noted, calls come from the whole dose curve; as a rule, active = well fitted curve in the direction sought with a large enough effect; inconclusive = small, poorly fitted or top-dose-only effect, or another doubt; inactive = no such curve, though single readings can be large; an effect the other way counts as inactive or inconclusive. Potency is the fitted concentration of half-maximal effect. Hits appear at their usual frequency. Share with any hit: about 4.7%.

NC(=O)Cn1c(=O)n(CCCCCC(=O)NCc2ccccc2)c(=O)c2sccc21 was read as LASV entry inh 5.3%[46.1 µM], Cruzain inh noDet 3.6%, 2A StopGo -0.9%, Marburg entry inh -7.3%[46.1 µM] and Cruzain inh Det -0.9%.
Screening O=C(COC(=O)c1cccnc1Cl)NCCC1=CCCCC1 returned LASV entry inh inconclusive, RE007 growth inh 9.5%, 2A StopGo 27.6%, Marburg entry inh 3.5%[46.1 µM], SARS PLpro yeast 0.1% and NS1 inh -1.0%.
`CC1(c2ccccc2)CC2CC(c3ccccc3)N1O2` (centres undefined) gave LASV entry inh 24.9%[14.3 µM], RE007 growth inh -8.5%, Cruzain inh noDet -2.9%, 2A StopGo -3.9%, Marburg entry inh -0.1%, SARS PLpro yeast -3.1%, Cruzain inh Det -1.4% and NS1 inh 2.4%.
For CC1CC(C)CN(C(=O)COC(=O)/C=C/c2ccco2)C1 (centres undefined) the results were LASV entry inh 11.0%, RE007 growth inh 3.4%, 2A StopGo 23.3%, Marburg entry inh inconclusive and SARS PLpro yeast -7.6%.
Screening COc1cc(OC)c(NC(=S)NCc2ccccc2)cc1Cl returned LASV entry inh 5.3%, RE007 growth inh 12.7%, 2A StopGo 50.2%[activator], Marburg entry inh -0.6%[46.1 µM] and SARS PLpro yeast -4.5%.
Screening CCOC(=O)c1ccc(N2C(=O)c3cccc4c(C(=O)O)ccc(c34)C2=O)cc1 returned RE007 growth inh -1.1%, 2A StopGo -9.9%, SARS PLpro yeast -0.1% and NS1 inh 5.2%.
Screening COc1ccc(C)cc1NC(=O)NC(C)c1c(-n2cccc2)sc(C)c1C (centres undefined) returned Cruzain inh noDet inconclusive, 2A StopGo -15.7%, Marburg entry inh inconclusive and Cruzain inh Det -5.1%.
Screening Cc1ccc(-n2nnnc2SCC(=O)NC(C(=O)O)(c2ccccc2)c2ccccc2)cc1C returned LASV entry inh 8.7%, RE007 growth inh 6.2%, 2A StopGo -0.2%, Marburg entry inh 0.2%[46.1 µM] and SARS PLpro yeast 1.3%.
For Cc1ccc2nc(NCc3ccccc3)c(C#N)cc2c1 the results were LASV entry inh 3.5%, RE007 growth inh -2.7%, 2A StopGo 14.3%, Marburg entry inh 0.5%[46.1 µM], SARS PLpro yeast 0.5% and NS1 inh -3.3%.
Screening O=C(O)c1ccc(N2CCOCC2)c(N2C(=O)C3C4C=CC(C4)C3C2=O)c1 (centres undefined) returned LASV entry inh 4.7%[46.1 µM], RE007 growth inh 3.5%, 2A StopGo -7.3%, Marburg entry inh -2.4%[46.1 µM], SARS PLpro yeast 0.6% and NS1 inh -1.0%.
Cc1ccccc1CN1CCN(CC(=O)NC(C)c2ccccc2)CC1 (centres undefined) was read as LASV entry inh -18.0%, RE007 growth inh -8.1%, 2A StopGo inconclusive, Marburg entry inh -2.3%, SARS PLpro yeast -5.6% and NS1 inh 5.2%.
For O=C(CC1C(=O)N(Cc2ccccc2)C(=S)N1CCN1CCOCC1)Nc1ccc(F)cc1 (centres undefined) the results were LASV entry inh 0.6%, RE007 growth inh 0.5%, 2A StopGo 15.0%, Marburg entry inh 6.2%[46.1 µM], SARS PLpro yeast 0.7% and NS1 inh 4.1%.
C=CCn1cnc2c(c1=O)c1nc3ccccc3nc1n2/N=C/c1cccc(OC)c1 was read as LASV entry inh 5.2%, RE007 growth inh 9.6%, Cruzain inh noDet inconclusive, 2A StopGo 6.1%, Marburg entry inh 27.9%&-0.1%, SARS PLpro yeast 1.6%, Cruzain inh Det -2.8% and NS1 inh inconclusive.
Screening Cc1cccc(C(=O)N2CCc3cc(CNC(=O)COc4ccc(Cl)cc4)ccc32)c1 returned LASV entry inh inconclusive, Cruzain inh noDet 5.3%, 2A StopGo -18.4% and Cruzain inh Det -0.7%.
`COc1ccc(NC(=O)c2ccc(-n3cncn3)c([N+](=O)[O-])c2)cc1` gave LASV entry inh -6.9%[46.1 µM], RE007 growth inh -17.0%, 2A StopGo -3.5%, Marburg entry inh -4.7%[46.1 µM], SARS PLpro yeast 0.0% and NS1 inh 4.5%.
For Cc1ccccc1N=C(NOCc1ccc(Cl)cc1Cl)c1nonc1N the results were LASV entry inh 8.8%, RE007 growth inh -8.4%, Cruzain inh noDet -1.2%, 2A StopGo inconclusive, Marburg entry inh inconclusive, SARS PLpro yeast -20.7%, Cruzain inh Det 0.3% and NS1 inh 2.1%.
Screening O=C(O)CSc1nnc(-c2cccc(S(=O)(=O)N3CCOCC3)c2)n1-c1cccc(Cl)c1 returned LASV entry inh 15.0%, RE007 growth inh -1.4%, 2A StopGo 1.2%, Marburg entry inh 1.0%, SARS PLpro yeast -1.5% and NS1 inh 0.8%.
For COc1ccc(S(=O)(=O)Nc2c(C(=O)O)[nH]c3ccc(OC)cc23)cc1 the results were RE007 growth inh -1.9%, 2A StopGo 6.2%, SARS PLpro yeast -4.3% and NS1 inh 10.7%.
Screening O=C(Nc1nc(-c2ccc(F)cc2)cs1)c1cccc(N2C(=O)CCC2=O)c1 returned LASV entry inh inconclusive, RE007 growth inh -27.5%, 2A StopGo -11.3%, Marburg entry inh 7.3%, SARS PLpro yeast 5.8% and NS1 inh 11.4%.
Screening CC(=O)c1cnc2c(-c3ccc(Cl)cc3)c(C)nn2c1C returned LASV entry inh 1.0%, RE007 growth inh -10.2%, Cruzain inh noDet -1.7%, 2A StopGo -19.3%, Marburg entry inh 5.7%, SARS PLpro yeast -16.4%, Cruzain inh Det 0.6% and NS1 inh 7.3%.
For Cc1ccc(-c2c(C(=O)N3CCN(c4cccc(C)c4)C(C)C3)oc(=O)c3ccccc23)cc1 (centres undefined) the results were LASV entry inh inconclusive, Cruzain inh noDet -23.9%, 2A StopGo inconclusive, Marburg entry inh inconclusive and Cruzain inh Det -6.7%.
`O=C(CSCc1cccs1)N1CCCC1` gave LASV entry inh 10.5%, RE007 growth inh 1.1%, Cruzain inh noDet -10.3%, 2A StopGo 45.7%[activator], Marburg entry inh inconclusive, SARS PLpro yeast 3.0%, Cruzain inh Det 3.2% and NS1 inh 9.3%.
`Oc1ccc(-n2nnnc2SCc2ccccc2Br)cc1` gave LASV entry inh inconclusive, RE007 growth inh 3.9%, 2A StopGo 4.5%, Marburg entry inh inconclusive, SARS PLpro yeast -17.2% and NS1 inh -56.7%.
Screening CCN(CC)C(=O)CSc1nc2cc3c(cc2c(=O)n1Cc1ccc(OC)cc1)OCO3 returned LASV entry inh inconclusive, RE007 growth inh -1.8%, 2A StopGo 20.7%, Marburg entry inh -9.0%[46.1 µM] and SARS PLpro yeast 0.8%.
For Cc1cc(C)c2c(n1)SCC(=O)N2CC(=O)Nc1ccc(Br)c(C)c1 the results were RE007 growth inh -5.2%, 2A StopGo -7.4%, SARS PLpro yeast -0.6% and NS1 inh -2.5%.
For CCN(C(=O)COc1ccccc1)C1CCCCC1 the results were LASV entry inh 10.7%[46.1 µM], RE007 growth inh -18.4%, 2A StopGo -4.7%, Marburg entry inh -13.2%[46.1 µM] and SARS PLpro yeast -1.0%.
Screening Cc1ccc(Cn2nnnc2CN2CCC(c3nc4ccc(Cl)cc4[nH]3)CC2)cc1 returned LASV entry inh inconclusive, RE007 growth inh 1.0%, Cruzain inh noDet -3.8%, 2A StopGo inconclusive, Marburg entry inh inconclusive, SARS PLpro yeast -12.4%, Cruzain inh Det 0.4% and NS1 inh -21.3%.
`O=C1CCC(C(=O)N2CCC(CO)CC2)CN1Cc1ccc(Cl)cc1` (centres undefined) gave LASV entry inh -1.0%, RE007 growth inh 1.2%, 2A StopGo -13.9%, Marburg entry inh -3.7%, SARS PLpro yeast inconclusive and NS1 inh 1.6%.
`Cc1cccc(COCC(Cc2ccccc2)N2CCN(C(=O)c3cccc(C)c3)CCC2=O)c1` (centres undefined) gave LASV entry inh 7.31µM*, RE007 growth inh 7.4%, Cruzain inh noDet inconclusive, 2A StopGo -17.4%, Marburg entry inh -39.1%, SARS PLpro yeast 6.2%, Cruzain inh Det -5.9% and NS1 inh -14.1%.
For COc1cccc(C2NC(=O)NC(C)=C2C(=O)OCC2CCCCC2)c1 (centres undefined) the results were RE007 growth inh 0.0%, 2A StopGo inconclusive, SARS PLpro yeast 17.4% and NS1 inh 25.6%.
For O=S(=O)(NCCC1=CCCCC1)c1ccc(F)cc1 the results were RE007 growth inh -6.0%, 2A StopGo 15.9%, SARS PLpro yeast -6.6% and NS1 inh -31.6%.
For O=S(=O)(NC1CCCCCC1)c1cccc(Cl)c1 the results were LASV entry inh -12.2%[46.1 µM], RE007 growth inh 4.9%, 2A StopGo 66.4%[activator], Marburg entry inh -1.2%[46.1 µM] and SARS PLpro yeast -36.9%.
For CCN(CC)c1ccc(NC(=O)c2cccc(F)c2)c(C)c1 the results were LASV entry inh -27.3%, RE007 growth inh 11.0%, Cruzain inh noDet -2.6%, 2A StopGo -1.6%, Marburg entry inh inconclusive, SARS PLpro yeast 3.2%, Cruzain inh Det 8.8% and NS1 inh -1.6%.
CC(C)N(C(=O)C[n+]1ccsc1N)c1ccccc1 was read as LASV entry inh 4.6%, RE007 growth inh -11.7%, 2A StopGo -6.1%, Marburg entry inh -1.5%[46.1 µM] and SARS PLpro yeast 1.5%.
`O=C(N=Nc1c(O)[nH]c(=O)[nH]c1=O)C1COc2cc3ccccc3cc2O1` (centres undefined) gave LASV entry inh -2.0%, RE007 growth inh -15.2%, 2A StopGo -12.7%, Marburg entry inh 8.4%[46.1 µM] and SARS PLpro yeast -2.9%.
CC1CC2=C(C(=O)O1)C(C)Nc1ccccc1N2 (centres undefined) was read as LASV entry inh 3.8%, RE007 growth inh -9.5%, Cruzain inh noDet 0.7%, 2A StopGo -17.4%, Marburg entry inh 4.2%, SARS PLpro yeast 6.0%, Cruzain inh Det -7.3% and NS1 inh 2.6%.
`O=C(Nc1c2c(nn1-c1ccc([N+](=O)[O-])cc1)CS(=O)(=O)C2)c1cccs1` gave RE007 growth inh -4.6%, 2A StopGo -8.0%, SARS PLpro yeast -0.3% and NS1 inh inconclusive.
